Screens from PubChem BioAssay.
NS1 inh = qHTS Assay for Inhibitors of Influenza NS1 Protein Function; S. cerevisiae slowed by influenza A NS1, growth recovery by OD600; Potency, µM (titrated, usually from 46.1 µM), for the others: at the highest dose activity, positive = more growth; actives 0.4% (n = 270,000); active means well fitted rising curve with a large enough effect; inconclusive means small, poorly fitted or top-dose-only effect; inactive means no such curve, though single readings can be large or run the other way; also: nearly all actives have a fitted effect of over 50% in size
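In this qHTS, NS1 from influenza A is expressed in budding yeast, where it slows growth. Cells are switched from glucose to 2% galactose medium (pH 6.0, -URA), treated with compound, and growth recovery is read at OD600.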
Cruzain inh noDet = qHTS Assay for Promiscuous and Specific Inhibitors of Cruzain (without detergent); purified cruzain, Z-FR-AMC fluorescence, no detergent; AID 1476, 2009; Potency, µM, without a hit: max response, negative = inhibition, actives largely listed as inhibitors; Cruzipain (Trypanosoma cruzi), P25779; actives 2.3% (n = 200,000);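 also: plate controls were enzyme without inhibitor for no effect and buffer without enzyme for full effect; nearly all actives have a fitted effect of over 40% in size; top concentration of the series not given in the record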
Target sequence (P25779 123-467 limits assumed): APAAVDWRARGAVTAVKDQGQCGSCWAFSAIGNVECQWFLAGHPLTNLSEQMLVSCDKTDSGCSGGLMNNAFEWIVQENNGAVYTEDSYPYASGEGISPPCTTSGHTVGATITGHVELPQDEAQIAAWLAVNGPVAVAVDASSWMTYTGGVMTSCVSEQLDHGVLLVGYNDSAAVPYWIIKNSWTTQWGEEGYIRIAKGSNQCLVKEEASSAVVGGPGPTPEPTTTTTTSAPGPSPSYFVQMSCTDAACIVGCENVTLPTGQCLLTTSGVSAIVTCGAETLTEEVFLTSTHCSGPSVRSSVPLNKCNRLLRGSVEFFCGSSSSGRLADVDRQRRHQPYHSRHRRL
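Detergent-free condition (0.00005% Triton X-100) in acetate buffer pH 5.5 with DTT. 1.5 nM enzyme and compound were pre-mixed 15 min, then 2 uM Z-FR-AMC substrate added; reaction progress from fluorescence change between first and third reads (60 s).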
Cruzain Triton = qHTS Assay for Promiscuous and Specific Inhibitors of Cruzain (with detergent). purified cruzain, Z-FR-AMC fluorescence, 0.01% Triton. Potency, µM, inactives show max response, negative = inhibition, usual class: inhibitors. actives 0.43% (n = 200,000);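 also: plate controls were neutral wells for no effect and buffer without enzyme for full effect; nearly all actives have a fitted effect of over 40% in size; top concentration of the series not given in the record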
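Purified cruzain (1.5 nM final) was preincubated with compounds for 15 min at room temperature in 100 mM sodium acetate pH 5.5, 5 mM DTT, 0.01% Triton X-100. Reaction started with 2 uM Z-FR-AMC; AMC fluorescence change over 60 s gave activity.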
SARS PLP yeast = qHTS of Yeast-based Assay for SARS-CoV PLP; S. cerevisiae expressing SARS-CoV PLpro, growth rescue; control for the full effect not named in the record; Potency, µM (highest dose often 32.9 µM), for inactives: at the top dose activity, positive = growth rescue; actives 0.19% (n = 330,000); AID 485353, 2010; active means well fitted rising curve with a large enough effect; inconclusive means small, poorly fitted or top-dose-only effect; inactive means no such curve, though single readings can be large or run the other way; also: 0% is about no effect; nearly all actives have a fitted effect of over 55% in size; growth read by luminescence after 48 h
MARV entry inh = qHTS for inhibitors of binding or entry into cells for Marburg Virus. AID 540276, 2011. actives 1.8% (n = 300,000). Potency, µM (series often up to 37.8 µM), without a hit: top-dose activity change, negative = inhibition, usual class: inhibitors. Marburg virus pseudotyped entry inhibition, cell reporter; control for the full effect not named in the record; about a third of the inactives were read at about 46 µM; active = well fitted inhibition curve with a large enough effect; inconclusive = small, poorly fitted or top-dose-only effect, or effect the other way; inactive = flat fitted curve, though single readings scatter; tested in HEK293 cells; about a fifth of its hits are not listed in these tables; also: % is scaled to controls: 0 for no effect and ±100 for the full control effect; luciferase read-out
RE007 growth inh = qHTS Assay for Inhibitors of the HIV-1 protein Vpr; S. pombe RE007 Vpr strain, BacTiter-Glo ATP luminescence, 24 h; control for the full effect not named in the record; Potency, µM (series often up to 92.2 µM), for inactives: at the highest dose activity change, negative = less growth; actives 0.21% (n = 360,000); active = well fitted falling curve with a large enough effect; inconclusive = small, poorly fitted or top-dose-only effect; inactive = no such curve, though single readings can be large or run the other way;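 also: % is scaled to controls: 0 for no effect and ±100 for the full control effect; nearly all actives have a fitted effect of over 50% in size; the assay follows cell death caused by Vpr and the record does not say whether a fall means rescue or toxicity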
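Fission yeast strain RE007, carrying one chromosomally integrated HIV-1 vpr copy, was seeded at OD 0.01 in PMG+AL medium with 23 nL pinned compound. After 24 h at 30 °C and 99% humidity, viability was read by BacTiter-Glo luminescence.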
StopGo reporter = High Throughput Screening for Foot and Mouth Disease Virus Antivirals. human cells with a luciferase reporter of 2A StopGo recoding; control for the full effect not named in the record. Potency, µM (series often up to 57.9 µM), for inactives: at the top dose signal change, negative = less light. actives 1.2% (n = 410,000). AID 1159524, 2015; active = well fitted falling curve with a large enough effect; inconclusive = small, poorly fitted or top-dose-only effect; inactive = no such curve, though single readings can be large or run the other way; tested in HEK293T cells; also: % is scaled to controls: 0 for no effect and ±100 for the full control effect; nearly all actives have a fitted effect of over 45% in size; luciferase light after 4 h
Lassa entry inh = qHTS for Inhibitors of binding or entry into cells for Lassa Virus | Lassa virus pseudotype entry inhibition, cell reporter; control for the full effect not named in the record | Potency, µM (titrated, usually from 37.9 µM), inactives show at the highest dose activity change, negative = inhibition, most hits filed as inhibitors | actives 1.2% (n = 300,000) | AID 540256, 2011; active means well fitted inhibition curve with a large enough effect; inconclusive means small, poorly fitted or top-dose-only effect, or effect the other way; inactive means flat fitted curve, though single readings scatter; tested in HEK293 cells; also: % is scaled to controls: 0 for no effect and ±100 for the full control effect; nearly all actives have a fitted effect of over 50% in size; luciferase read-out
* hit, by the source's call; & = joins results of further samples; [ ] = remark or other dose. Unless noted, calls follow the shape of the dose curve; as a rule, active = well fitted curve in the direction sought with a large enough effect; inconclusive = small, poorly fitted or top-dose-only effect, or another doubt; inactive = no such curve, though single readings can be large; an effect the other way counts as inactive or inconclusive. Potency is read from the fitted curve at half-maximal effect.

Results for COc1ccc(Oc2nc3c(c(=O)n(C)c(=O)n3C)n2Cc2ccccc2Cl)cc1 ?
Cruzain inh noDet: 1%; Cruzain Triton: -0.3%; MARV entry inh: inconclusive; StopGo reporter: -9%; Lassa entry inh: -4%[46.1 µM]

How did O=C(NC1CCCCC1)c1cc(-n2cnnc2)ccc1Cl do in these assays?
NS1 inh: 7%; SARS PLP yeast: 4%; RE007 growth inh: -1%; StopGo reporter: -15%

What do the screens show for `O=S(=O)(NCc1cccnc1)c1ccc(Cl)nc1`?
NS1 inh: 2%; Cruzain inh noDet: 0%; Cruzain Triton: -6.0%; SARS PLP yeast: 3%; MARV entry inh: -4%; RE007 growth inh: 13%; StopGo reporter: -20%; Lassa entry inh: 4%

How did COc1cc(Nc2ncnc(N)n2)cc(OC)c1OC do in these assays?
NS1 inh: 2%; SARS PLP yeast: -1%; MARV entry inh: -12%[46.1 µM]; RE007 growth inh: -4%; StopGo reporter: -4%; Lassa entry inh: 9%[46.1 µM]

How did Cc1ccccc1CNC(=O)c1cccc(NC(=O)N2CCSc3ncccc32)c1 do in these assays?
Cruzain inh noDet: -25%; Cruzain Triton: -21%; StopGo reporter: inconclusive; Lassa entry inh: -4%[46.1 µM]

What do the screens show for `COc1cccc(C(=O)OCC(=O)c2ccc(S(=O)(=O)N3CCCCC3)cc2)c1OC`?
SARS PLP yeast: 0%; MARV entry inh: inconclusive; RE007 growth inh: -2%; StopGo reporter: inconclusive; Lassa entry inh: 1%

What do the screens show for `O=C(Nc1c(C(=O)N2CCCCC2)cnn1-c1ccccc1)c1ccco1`?
NS1 inh: -2%; Cruzain inh noDet: 4%; Cruzain Triton: 2.9%; SARS PLP yeast: 0%; MARV entry inh: 24%; RE007 growth inh: 5%; Lassa entry inh: 0%

What do the screens show for `CC(Sc1nnnn1-c1ccccc1)C(=O)NC1CCCC1` (stereo not given)?
SARS PLP yeast: 3%; MARV entry inh: 4%; RE007 growth inh: 2%; StopGo reporter: 3%; Lassa entry inh: -3%

How did COc1ccc(N(CCCN2C(=O)c3cccc4cccc(c34)C2=O)C(=O)c2cccs2)cc1 do in these assays?
NS1 inh: 12%; Cruzain inh noDet: inconclusive; Cruzain Triton: -4.0%; SARS PLP yeast: inconclusive; MARV entry inh: 2%; RE007 growth inh: 9%; StopGo reporter: -29%; Lassa entry inh: 0%

How did Cc1ccc(N(C)S(=O)(=O)c2ccc(C)cc2)cc1 do in these assays?
NS1 inh: -80%; Cruzain inh noDet: 0%; Cruzain Triton: -2.1%; SARS PLP yeast: -16%; MARV entry inh: -5%; RE007 growth inh: -16%; StopGo reporter: -8%; Lassa entry inh: 5%

What do the screens show for `O=C(NCCc1ccccc1)C(=O)c1c[nH]c2ccccc12`?
NS1 inh: 14%; SARS PLP yeast: 5%; MARV entry inh: 23%[46.1 µM]; RE007 growth inh: 8%; StopGo reporter: 34%[activator]; Lassa entry inh: inconclusive

What do the screens show for `CCN(C(=O)c1cn(C)c(=O)c2ccccc12)c1ccccc1F`?
NS1 inh: 9%; SARS PLP yeast: 0%; MARV entry inh: -16%; RE007 growth inh: -5%; StopGo reporter: 21%; Lassa entry inh: 19%

How did Cc1cccc(Cn2c(NCC(C)O)nc3c2c(=O)n(C)c(=O)n3C)c1 (stereo not given) do in these assays?
NS1 inh: -5%; Cruzain inh noDet: 1%; Cruzain Triton: -1.9%; SARS PLP yeast: 0%; MARV entry inh: -11%; RE007 growth inh: 8%; StopGo reporter: inconclusive; Lassa entry inh: -5%

How did Cc1cc(-c2ccccc2)n2ncc(-c3ccccc3)c2n1 do in these assays?
NS1 inh: 5%; Cruzain inh noDet: 1%; Cruzain Triton: -5.4%; SARS PLP yeast: 17%; MARV entry inh: 3.7µM*; RE007 growth inh: -14%; StopGo reporter: -16%; Lassa entry inh: inconclusive

How did CCc1cc2c(=O)c(-c3nc4ccccc4n3C)c(COCC(=O)O)oc2cc1OC(=O)C(C)(C)C do in these assays?
NS1 inh: 22%; Cruzain inh noDet: inconclusive; Cruzain Triton: 7.5%; SARS PLP yeast: -5%; MARV entry inh: 18%; RE007 growth inh: 7%; StopGo reporter: 20%; Lassa entry inh: -1%

What do the screens show for `Cc1ccc(C)c(-c2cc(C(=O)NNC(=S)NCC(C)C)c3ccccc3n2)c1`?
NS1 inh: -2%; Cruzain inh noDet: 3%; Cruzain Triton: -5.2%; SARS PLP yeast: 12%; MARV entry inh: -25%; RE007 growth inh: 0%; StopGo reporter: 32%[activator]; Lassa entry inh: 18%

How did Cc1ccc(S(=O)(=O)n2cc(-c3ccccc3)c(N)n2)cc1 do in these assays?
NS1 inh: 0%; Cruzain inh noDet: -3%; Cruzain Triton: -4.9%; SARS PLP yeast: 6%; MARV entry inh: inconclusive; RE007 growth inh: -8%; StopGo reporter: -20%; Lassa entry inh: 10%

What do the screens show for `Cc1c(NC(=O)C(C#N)=C2CCCCC2)c(=O)n(-c2ccccc2)n1C`?
NS1 inh: -3%; Cruzain inh noDet: 4%; Cruzain Triton: -1.0%; SARS PLP yeast: -2%; MARV entry inh: 13%; RE007 growth inh: -10%; StopGo reporter: -3%; Lassa entry inh: 2%

Results for O=C(Nc1cccc(S(=O)(=O)N2CCOCC2)c1)C1COc2ccccc2O1 (stereo not given) ?
SARS PLP yeast: -4%; MARV entry inh: inconclusive; RE007 growth inh: -19%; StopGo reporter: 7%; Lassa entry inh: 12%

Results for CCOc1ccc(C(=O)NCC(=O)NNC(=O)c2ccco2)cc1OCC ?
SARS PLP yeast: -10%; MARV entry inh: 0%; RE007 growth inh: inconclusive; StopGo reporter: -12%; Lassa entry inh: 25%

What do the screens show for `COc1cccc(-n2c(SCC(=O)N3CCCCC3)nc3c([nH]c4ccccc43)c2=O)c1`?
NS1 inh: 3%; Cruzain inh noDet: 8%; Cruzain Triton: -1.0%; SARS PLP yeast: 0%; RE007 growth inh: 1%; StopGo reporter: -13%&-4%; Lassa entry inh: inconclusive

Results for COc1ccccc1CNC(=O)CCS(=O)(=O)c1ccc(Cl)cc1 ?
SARS PLP yeast: -5%; MARV entry inh: -11%; RE007 growth inh: -12%; StopGo reporter: -3%; Lassa entry inh: -14%

How did COc1ccc(OC)c(S(=O)(=O)NC2CCN(Cc3ccccc3)CC2)c1 do in these assays?
NS1 inh: 1%; Cruzain inh noDet: -5%; Cruzain Triton: 0.2%; SARS PLP yeast: 2%; MARV entry inh: 4%; RE007 growth inh: -4%; Lassa entry inh: 0%

How did O=C(CSc1nnc(-c2cccs2)n1-c1ccccc1)c1ccc2c(c1)OCCO2 do in these assays?
NS1 inh: -3%; Cruzain inh noDet: inconclusive; Cruzain Triton: 3.1%; SARS PLP yeast: -4%; MARV entry inh: 9%[46.1 µM]; RE007 growth inh: 11%; StopGo reporter: -21%; Lassa entry inh: 9%

How did CCc1cccc(C)c1Nc1c(-c2cccc(O)c2)nc2cnccn12 do in these assays?
Cruzain inh noDet: 3%; Cruzain Triton: -9.6%; MARV entry inh: 21%[46.1 µM]; StopGo reporter: inconclusive; Lassa entry inh: -23%[46.1 µM]

Results for c1ccc(OCc2nc(-c3cccs3)no2)cc1 ?
NS1 inh: -12%; Cruzain inh noDet: -8%; Cruzain Triton: -4.2%; SARS PLP yeast: 2%; MARV entry inh: inconclusive; RE007 growth inh: -24%; StopGo reporter: 69%[activator]; Lassa entry inh: 81%[14.3 µM]

How did CCC1Oc2ccc(C)cc2N(CC(=O)NCCCN2CCCCC2CC)C1=O (stereo not given) do in these assays?
NS1 inh: 2%; Cruzain inh noDet: 8%; Cruzain Triton: 2.7%; SARS PLP yeast: -3%; MARV entry inh: -1%&-7%; RE007 growth inh: -20%; StopGo reporter: 0%; Lassa entry inh: 11%

How did Cc1nn2c(=O)cc(COC(=O)c3ccccc3NC(=O)C(C)Oc3ccccc3)nc2s1 (stereo not given) do in these assays?
Cruzain inh noDet: 0%; Cruzain Triton: 0.4%; StopGo reporter: 0%; Lassa entry inh: 11%[46.1 µM]

Results for CCC(C)c1c(N)n(S(=O)(=O)c2ccc(C)cc2)oc1=O (stereo not given) ?
MARV entry inh: inconclusive; RE007 growth inh: 2%; StopGo reporter: 27%; Lassa entry inh: 17%[46.1 µM]

Results for COc1cc(C(=O)NCc2ccccc2)cc(Br)c1OC ?
NS1 inh: 3%; Cruzain inh noDet: -13%; Cruzain Triton: -6.7%; SARS PLP yeast: -1%; MARV entry inh: 8%[46.1 µM]; RE007 growth inh: -3%; StopGo reporter: 27%; Lassa entry inh: inconclusive

What do the screens show for `COc1cc(OC)c(-n2c(C)cc(C=O)c2C)cc1Cl`?
NS1 inh: -8%; Cruzain inh noDet: -2%; Cruzain Triton: 1.7%; SARS PLP yeast: -6%; MARV entry inh: 16%; RE007 growth inh: 7%; StopGo reporter: -16%; Lassa entry inh: -4%

How did CC1CCC2(CC1)OCC1(CCC3(COC4(CCC(C)CC4)OC3)C1=O)CO2 (stereo not given) do in these assays?
NS1 inh: 7%; SARS PLP yeast: 1%; MARV entry inh: 5%[46.1 µM]; RE007 growth inh: 3%; StopGo reporter: inconclusive; Lassa entry inh: -19%

What do the screens show for `C/C(=N/NC(=O)CNC(=O)c1ccncc1)c1ccco1`?
NS1 inh: -1%; SARS PLP yeast: 0%; MARV entry inh: -11%[46.1 µM]; RE007 growth inh: 6%; StopGo reporter: 9%; Lassa entry inh: 3%

How did COC(=O)c1c(C(=O)OC)c2n(c1C)Cc1ccccc1C2 do in these assays?
NS1 inh: -8%; Cruzain inh noDet: -5%; Cruzain Triton: 1.4%; SARS PLP yeast: 4%; MARV entry inh: 0%; RE007 growth inh: 5%[3.69 µM]; StopGo reporter: -4%; Lassa entry inh: -1%

How did CCC1=C(OC(=O)N(CC)CC)N2C(=O)OC(=NCc3ccccc3)[C@]2(C)[C@H]2C1=CC[C@H]1C(=O)N(CC(=O)OC)C(=O)[C@H]12 do in these assays?
NS1 inh: -7%; Cruzain inh noDet: inconclusive; Cruzain Triton: -4.2%; SARS PLP yeast: 2%; RE007 growth inh: 11%; StopGo reporter: 71%[activator]

This is a random part of the collection; overall some 4.8% were active at least once.
